Screening results deposited in PubChem by National Center for Advancing Translational Sciences (NCATS).
HSD17B inh – qHTS Assay for Inhibitors of HSD17B4, hydroxysteroid (17-beta) dehydrogenase 4 | recombinant HSD17B10, NADH fluorescence kinetic; many of its hits are not listed in these tables | Potency, µM (series often up to 57.1 µM), inactives show top-dose activity change, negative = inhibition, actives largely listed as inhibitors | actives 7.6% (n = 75,000); active = well fitted inhibition curve with a large enough effect; inconclusive = small, poorly fitted or top-dose-only effect; inactive = no such curve, though single readings can be large or run the other way;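 also: the protocol describes HADH2 (HSD17B10) and not the HSD17B4 of the title; nearly all actives have a fitted effect of over 70% in size; most hits overshoot -100% by far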
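Activity followed as NADH fluorescence increase (ex 360, em 450 nm) every 30 seconds for 4 min, using final 90 uM beta-hydroxybutyryl CoA and 1 mM NAD+. Recombinant His-tagged enzyme, 20 nM, pH 9.0 Tris buffer, 15 min compound preincubation.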
An asterisk follows results filed as active; i = inactive; ? = inconclusive; [ ] = another dose, or the depositor's remark. % is scaled to controls: 0 for no effect and ±100 for the full control effect; potency is read from the fitted curve at half-maximal effect.

SMILES | HSD17B inh
CSc1nnc(Cc2cc(=O)[nH]c(=O)[nH]2)n1-c1cc(C)ccc1C | 11%
CC1Cc2ccccc2N1C(=O)CSc1nc2c(c(=O)n(C)c(=O)n2C)n1Cc1ccccc1 (stereo not drawn) | 21%
c1ccc2c(Cn3nnc4ccccc43)cccc2c1 | -7%
CCOC(=O)CNC(=O)CSc1nnc(-c2ccccc2)n1Cc1ccco1 | 3%
CCOC(=O)CN(C(=O)c1ccccc1)c1ccccc1C | 5%
O=S(=O)(c1ccc(Oc2ccc(Br)cc2)cc1)N1CCOCC1 | -13%
Cc1ccc(-c2cn3cccnc3n2)cc1NC(=O)c1c(-c2ccccc2Cl)noc1C | 25µM*
CCCCOC(=O)C1C2C=C[C@]3(CN(CCCOC)C(=O)[C@H]13)O2 (stereo partly drawn) | -1%
CCOC(=O)C1CCN(CC(O)COc2ccc(C(C)(C)C)cc2)CC1 (stereo not drawn) | -2%
CCOC(=O)N1CCN(C(=O)CCSc2ccc(C)cc2)CC1 | 7%
Cn1c(SCc2ccccn2)nnc1-c1cnccn1 | 8%
O=C(CCNS(=O)(=O)c1ccc(Cl)cc1)NCc1cccnc1 | 5%
CC1CCCCN1C(=O)CSc1nc(-c2ccccc2)cc(=O)[nH]1 (stereo not drawn) | 1%
O=S(=O)(c1ccccc1)N1CCC2(CCCN(c3ncccn3)C2)CC1 | -20%
CCN(CC)CCCN1C(=O)C(O)=C(C(=O)c2ccco2)C1c1ccc(OC(C)C)cc1 (stereo not drawn) | -8%
O=[N+]([O-])c1cccc(/C=N\NC2=CS(=O)(=O)C=C2)c1 | -1%[11.4 µM]
CCC1=C2CC[C@H]3C(=O)N(C)C(=O)[C@H]3[C@H]2[C@@]2(C)C(=NCC(=O)OC)OC(=O)N2C1=O | 6%
CCN(CC)C(=O)C1CCN(CC2CC=CCC2)CC1 (stereo not drawn) | 9%
CCOc1ccc(OCC)c(NC(=O)CN2CCN(c3cc(C)ccc3C)CC2)c1 | -9%
COc1nc(OC)nc(N2CCC(C(=O)Nc3cccc4c3CCCC4)CC2)n1 | 1%
O=C(c1csc2c1CCCC2)N1CCN(c2ncccn2)CC1 | -3%
CC(C)NC(=O)CCS(=O)(=O)c1ccc(Br)s1 | 2%
C/C(=C\C1CCCCC1)C(NC(=O)c1cccnc1)c1ccc(-c2ccccc2)cc1 (stereo not drawn) | 19%
O=C(CSc1nnc(-c2ccc(Cl)s2)o1)N1CCOCC1 | -3%
COC(=O)c1cc(Br)c(=O)n(-c2ccc(OC)cc2)c1 | 2%
Cc1nn(-c2cc(Cl)ccc2N)c(=O)c2ccccc12 | 5%
CCOC(=O)CN1C(=O)SC(CC(=O)Nc2nccs2)C1=O (stereo not drawn) | 0%
CCn1c(SCCN2CCCCC2)nnc1-c1ccc(S(=O)(=O)N2CCOCC2)cc1 | -15%
CN(C)c1nc(Oc2ccc(C(=O)OCC(=O)Nc3ccccc3)cc2)nc(N(C)C)n1 | 135%[activator]
c1ccc(Cn2nnnc2C(c2ccccn2)N2CCOCC2)cc1 (stereo not drawn) | -4%

Next section, starting with the last 2 of the part before.
SMILES | HSD17B inh
CN(C)c1nc(Oc2ccc(C(=O)OCC(=O)Nc3ccccc3)cc2)nc(N(C)C)n1 | 135%[activator]
c1ccc(Cn2nnnc2C(c2ccccn2)N2CCOCC2)cc1 (stereo not drawn) | -4%
CC1CC(C)CN(C(=O)COC(=O)CNS(=O)(=O)/C=C/c2ccccc2)C1 (stereo not drawn) | -2%
CSc1ccccc1NC(=O)CN(Cc1ccc(Cl)cc1)S(C)(=O)=O | -5%
CCN(CC)S(=O)(=O)c1ccc(S(=O)(=O)N(Cc2ccccn2)Cc2ccco2)cc1 | 7%
COC(=O)Nc1nc(C)c(C(=O)N(C)C)s1 | 4%
Cc1cc(Br)ccc1NC(=O)CNC(=O)CN(C)Cc1nc2ccccc2c(=O)[nH]1 | 3%
Cc1ccc(S(=O)(=O)N(CC(=O)O)Cc2cccc(C)c2)cc1 | 7%
Cc1ccc2nc(NCc3ccco3)c(C=NCc3ccco3)c(=O)n2c1 | ?
CCOC(=O)c1cccc(-n2c(C)nc3ccccc3c2=O)c1 | -5%
Cc1cc(C)cc(OCC(=O)NCc2nc(-c3ccccc3)no2)c1 | -7%
O=C(CSc1nnc(-c2cccs2)n1Cc1ccco1)c1ccc2c(c1)OCO2 | ?
CCCC(=O)N1c2ccc(-c3csc(N)n3)cc2CC1C (stereo not drawn) | -1%
Nc1ccc(O)c([N+](=O)[O-])c1 | -14%
COC(c1ccccc1Br)C(C)/C=C/CCO (stereo not drawn) | -1%[11.4 µM]
O=C(NC1CCCCC1)C(c1ccc(Cl)cc1)N(C(=O)c1cnccn1)c1ccc2c(c1)OCO2 (stereo not drawn) | 8%
O=C(Nc1ccc(F)cc1)N(CCCN1CCOCC1)Cc1cc2cc3c(cc2[nH]c1=O)OCCO3 | 32µM*
CCOC(=O)N1CCN(C(=O)CS(=O)(=O)Cc2nc(-c3ccccc3C)oc2C)CC1 | 3%
O=C(COC(=O)C1CCN(C(=O)c2ccc(Cl)cc2)CC1)c1ccco1 | 6%
CCC(C)(C)N1CC(=O)N(Cc2ccccc2)C(c2ccc(OC)cc2)C1=O (stereo not drawn) | ?
COc1ccc(-c2noc(CCCc3ccccc3)n2)cc1OC | -8%
Cc1nc2ccccc2c2oc(C(=O)NCCN3CCN(C)CC3)cc12 | 2%
CS/C(=N\S(=O)(=O)c1cccs1)Nc1ccc(N2CCOCC2)cc1 | -1%
CC(c1ccco1)N(C(=O)c1ccc(Cl)s1)c1ccccn1 (stereo not drawn) | 5%
O=C(NC1CCCCC1)NC1CCN(S(=O)(=O)Cc2ccccc2)CC1 | 2%
Cc1cc(Cl)c(S(=O)(=O)Nc2ccon2)cc1OCC(=O)NC1CCCCC1 | 11%
CCCS(=O)(=O)c1nc(S(=O)(=O)c2ccc(C)cc2)c(N2CCCC2)s1 | -24%
COc1ccc(N2CCN(CCCNC(=O)C3CCCN(S(=O)(=O)c4cnc[nH]4)C3)CC2)cc1 (stereo not drawn) | -1%
Cc1cc(=O)oc2cc(OCC(=O)N3CCCc4ccccc43)ccc12 | ?
CC1(C(=O)NCc2cc(F)cc(C(F)(F)F)c2)C=CC2(CCCCC2)N1C(=O)c1ccccc1 (stereo not drawn) | -9%
Cn1c(=O)c2c(-c3ccccc3)n(-n3cnnc3)cc2n(C)c1=O | -9%
CN(C)CCN1C(=O)c2oc3ccccc3c(=O)c2C1c1cccc(Br)c1 (stereo not drawn) | 4%

A draw from above in order of formula weight, lowest first:
SMILES | HSD17B inh
COc1nc(OC)nc(N2CCC(C(=O)Nc3cccc4c3CCCC4)CC2)n1 | 1%
CCOC(=O)CNC(=O)CSc1nnc(-c2ccccc2)n1Cc1ccco1 | 3%
CN(C)CCN1C(=O)c2oc3ccccc3c(=O)c2C1c1cccc(Br)c1 (stereo not drawn) | 4%

Returning to the listing, repeating the 4 entries before the break.
SMILES | HSD17B inh
Cc1cc(=O)oc2cc(OCC(=O)N3CCCc4ccccc43)ccc12 | ?
CC1(C(=O)NCc2cc(F)cc(C(F)(F)F)c2)C=CC2(CCCCC2)N1C(=O)c1ccccc1 (stereo not drawn) | -9%
Cn1c(=O)c2c(-c3ccccc3)n(-n3cnnc3)cc2n(C)c1=O | -9%
CN(C)CCN1C(=O)c2oc3ccccc3c(=O)c2C1c1cccc(Br)c1 (stereo not drawn) | 4%
CCOc1ccc(C(=O)c2nc3c(n2O)CCCC3)cc1 | 2%
CCOc1ccc(CCNC(=O)C2CC(=O)N(C3CCCC3)C2)cc1OCC (stereo not drawn) | 6%
COc1ccc(-n2nnnc2SCC(=O)c2cccc(OC)c2)cc1 | 2%
CCOC(=O)Cn1c(S(=O)(=O)Cc2ccccc2)nc2ccccc21 | -7%
CN(C)c1ccc(N=Cc2nc(-c3ccccc3)oc2O)cc1 | 3%
CCOC(=O)C(Cc1ccccc1)NC(=O)CCc1c(C)nc2ncnn2c1C (stereo not drawn) | 5%
COC(=O)c1ccccc1NC(=O)N1CCCC1 | 32µM*
COCCCN1C(=O)C(O)=C(C(=O)c2ccco2)C1c1ccccc1 (stereo not drawn) | -6%
Cc1nn(Cc2ccccc2Cl)c(C)c1NC(=O)c1noc2c1CCCCC2 | 6%
O=C(NC1CCCc2ccccc21)c1ccc(CNc2c(N3CCOCC3)c(=O)c2=O)cc1 (stereo not drawn) | -4%
N#Cc1ccccc1CSc1nc(O)cc(=O)[nH]1 | 4%
CC(=O)Nn1cc2c(=O)n(C)c(=O)n(C)c2c1 | 6%
O=C(C1CC(=O)N(c2ccccc2)C1)N1CCN(C2=NS(=O)(=O)c3ccccc32)CC1 (stereo not drawn) | 10%
c1ccc(-n2ncc3c(NCc4cccs4)ncnc32)cc1 | ?
CCOc1cc(C2C(C(=O)OC)=C(C)N=C3SC(C)C(=O)N32)ccc1OC(C)=O (stereo not drawn) | 4%
CSc1nc(-c2ccccc2)nc(N2CCCC2)c1C(C)=O | 2%
Cc1c(-n2c(CN3C(=O)c4ccccc4C3=O)nc3ccccc3c2=O)c(=O)n(-c2ccccc2)n1C | 9%
O=C(CSC1=NCCN1)c1ccccc1 | -7%[11.4 µM]
N#Cc1ccc(CSc2nnc(-c3cnccn3)o2)cc1 | -15%
COC(=O)c1ccccc1NC(=O)CSc1nnnn1-c1ccc(C)cc1C | 25µM*
C[N+](C)(C)c1ccc([C@H](N)C(=O)O)cc1 | 4%[11.4 µM]
CCOc1nc2ccccc2nc1NS(=O)(=O)c1ccccc1 | -7%
COc1ccc(-n2c(=O)c(-c3cc(F)cc(F)c3)nc3cnc(N(C)C)nc32)cc1 | -1%
N#Cc1c(N)[nH]c(=S)c(C#N)c1-c1ccccc1 | ?
COc1ccccc1-c1c(C)oc2cc(OC(=O)c3ccco3)ccc2c1=O | i
COCCn1c(=S)[nH]c2cc(C(=O)N3CCc4ccccc43)ccc2c1=O | -12%
COc1ccc(-c2[nH]ncc2-c2ccc(Cl)cc2)c(O)c1 | -12%
c1ccc(N2CCN(CCc3nnc4n3CCCCC4)CC2)cc1 | 3%
CCOc1ccc(C2CC(=O)NC3=C2C(=O)CCC3)cc1Cl (stereo not drawn) | 5%
COc1ccc(N2CCN(S(=O)(=O)c3cccc(C(F)(F)F)c3)CC2)cc1 | -15%
Nc1c2ccccc2nc2c(O)cccc12 | -1%[25.6 µM]
O=C(CN1CCN(c2nc(-c3ccccc3)cs2)CC1)NCc1ccc2c(c1)OCO2 | -12%
COCCCNC(=O)CCCn1c(=O)[nH]c2ccccc2c1=O | ?
O=C(Cn1c(SCC(=O)NC2CCCC2)nnc1-c1ccncc1)Nc1ccc2c(c1)OCO2 | 8%
CCC(CC)C(=O)NCCc1cc2cc(C)c(C)cc2[nH]c1=O | -13%
COC(=O)C1=C(C)N(CCC2=CCCCC2)C(=O)C1 | -3%
Cc1cc(C(=O)NCc2ccccc2)c(=O)[nH]c1C | 32µM*
CCCC(c1cc(C(C)(C)C)c(O)cc1C)c1cc(C(C)(C)C)c(O)cc1C | -6%[11.4 µM]
COc1ccccc1C(=O)Nc1cc(-c2nn3c(C)nnc3s2)ccc1C | -17%
CN1/C(=C\C(=O)C(F)F)C(C)(C)c2ccccc21 | ?
CCOC(=O)c1sc2nc3c(cc2c1N)COC(C)(C)C3 | ?
Cc1cc(-c2ccccc2)nc(N2CCN(c3ccccn3)CC2)n1 | 58%[activator]
CCOC(=O)c1oc2c(CN3CCCCC3C)c(O)ccc2c(=O)c1-c1ccc(OC)c(OC)c1 (stereo not drawn) | 1%
O=C(COc1ncnc2ccc(Br)cc12)Nc1ccc(N2CCOCC2)cc1 | 6%
Cc1ccc(CNC(=O)C2c3ccccc3C(=O)N3CCc4ccccc4C23)o1 (stereo not drawn) | -6%
C=C(C)c1nc(N)nc(N)n1 | 10%
CCOC(=O)N1CCN(C(=O)c2ccc3c(c2)NC(=O)C(N2CCOCC2)S3)CC1 (stereo not drawn) | 1%
CCCCSc1nnc2nc(C)cc(C)n12 | -5%
COc1ccc(S(=O)(=O)N2CCN(c3ccc(C)cc3C)CC2)cc1OC | 6%
COC(=O)c1cccc(C(=O)Nc2ccc(C)cc2)n1 | -9%
Cn1c(=O)c(CCc2ccccc2)nc2cnc(OCc3ccccc3)nc21 | -14%
COc1cccc(NC(=O)c2nc3ncccn3n2)c1 | 9%
O=C(O)c1ccc(S(=O)(=O)N2CCC(c3nc(-c4ccccc4Cl)no3)CC2)cc1 | 7%
O=c1ccc2cc(S(=O)(=O)N3CCOCC3)ccc2o1 | 11%
CCC(c1nnnn1C(C)(C)C)N(CCOC)Cc1cc2cccc(C)c2n2nnnc12 (stereo not drawn) | -1%
CCC(=O)Nc1cc2c(cc1C(=O)c1ccccc1)OCCO2 | 6%
O=C(O)Cc1ccc(NC(=O)C2CCCCC2C(=O)O)cc1 (stereo not drawn) | 9%
COC(=O)c1cc(=O)nc2sc(-c3ccccc3)nn12 | -21%

Not all compounds are listed (hit frequency here may not be typical).
